Assay outcomes as filed in PubChem.
Choline anaer gr – growth inhibitors of anaerobic choline-fed gram-negatives, minimal medium, absorbance; Gram-negative bacterium anaerobic choline minimal medium; hits give low values; many inactives read as strong as hits in the columns shown; calls only; 55,000 compounds, 0.2% hits;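 active = growth z-score on choline under -2 at 7 or 20 h with little or no fall on glycerol, limits in tiers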;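 note: stock transfer was 300 nL into about 50 µL; the organism is E. coli; final concentration not given here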
Choline anaer gr early – second read-out of Choline anaer gr, no call of its own (marks repeat the call); z-score; measured here: choline growth z-score, timepoint 1;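 score of optical density at 7 h as mean of two plates; lower means less growth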
* = called active by the depositor; i = inactive; & = joins results of further samples. Some of the compounds tested, so the mix of outcomes need not match the whole.

Below each compound – Choline anaer gr early, Choline anaer gr
[1] COCCN1CC(C(=O)NCc2ccc3c(c2)OCO3)CC1=O (stereo unspecified)
  3.14, i
[2] CC1(C)C(=O)N(CC(=O)NC2CCCC2)c2ccc(S(=O)(=O)N3CCCC3)cc21
  -0.45, i
[3] CNC(=O)N1CCCC(c2cccc(C(=O)NCc3ccc(Br)cc3)c2)C1 (stereo unspecified)
  -0.65, i
[4] CCCCC/C=C\C/C=C\CCCCCCCC(=O)O[C@@H](CO)COC(=O)CCCCCCCCCCCCCCCCC
  -0.05, i
[5] CC1CSc2ccc(S(=O)(=O)N3CCCC3)cc2N(CC(=O)NC2CCCCC2)C1=O (stereo unspecified)
  0.4, i
[6] CC1=C(c2ccc(C)c(C)c2)S(=O)(=O)N(CC(=O)NCc2ccccc2)C1=O
  1.41, i
[7] Cc1nn(-c2ccc(F)cc2)c(C)c1S(=O)(=O)Nc1ccc(F)cc1F
  -0.51, i
[8] CC1=C(c2ccc(C)c(C)c2)S(=O)(=O)N=C1N1CCC(C(=O)NCC2CCCO2)CC1 (stereo unspecified)
  1.04, i
[9] CC(C)c1cc(C2CCCN2C(=O)c2cc3nc(C4CC4)cc(C(F)(F)F)n3n2)on1 (stereo unspecified)
  0.71, i
[10] Cc1cc2oc(C(=O)N(Cc3ccc(N(C)C)cc3)CC3CCCO3)c(C)c2cc1C (stereo unspecified)
  2.03, i
[11] CN1CCN(C(=O)c2ccc(N3CCNCC3)c(NS(=O)(=O)c3ccc(F)cc3)c2)CC1
  0.19, i
[12] O=S(=O)(c1ccc(NC2CCCC2)nn1)C1CCCCC1
  -2.04, i
[13] Cc1cc(C)cc(NC(=O)N2CCCC2c2cc(C(C)C)no2)c1 (stereo unspecified)
  1.56, i
[14] O=C(NCC1CCCO1)c1cc2occc2c(Nc2ccc(F)cc2)n1 (stereo unspecified)
  0.25, i
[15] CCCCCCN(CCCCCC)C(=O)Cc1c(-c2ccc(F)cc2)[nH]c2ccccc12
  1.13&1.09, i
[16] CC[C@H](c1ccc(O)cc1)[C@@H](CC)c1ccc(O)cc1
  -0.03, i
[17] Cc1cccc(NC(=O)c2ccc3nnc(SCC(=O)Nc4ccc(F)cc4F)n3c2)c1
  1.1, i
[18] Cc1cc2c(N(C)C3CCCCC3)ncnc2s1
  -0.68, i
[19] Cc1nc(CC(=O)Nc2ccccc2)cs1
  0.33, i
[20] CC1(C)C(=O)N(CC(=O)Nc2cccc(Cl)c2)c2ccc(S(=O)(=O)N3CCCC3)cc21
  -0.81, i
[21] Cc1cccc(NC(=O)Nc2cccc(-c3nnc(-c4ccccc4)o3)c2)c1C
  -0.78, i
[22] CCCN1CCN(c2cc(C(=O)O)c3cc(NC(=O)c4ccccc4Cl)ccc3n2)CC1
  0.5, i
[23] Cc1ccc(-n2ccc(=O)c(C(=O)Nc3c(C)n(C)n(-c4ccccc4)c3=O)n2)cc1
  0.55, i
[24] Cc1ccccc1OC1C(=O)N(c2cccc(Cl)c2)C1c1ccc2c(c1)OCO2 (stereo unspecified)
  1.21, i
[25] NC(=O)c1nc(Nc2ccccc2)sc1NC(=O)Cc1nc(F)c(F)cc1F
  -0.05, i
[26] CC(=O)Nc1ccc2nc(N3CCC(C(=O)NCCN4CCOCC4)CC3)cc(C)c2c1
  -0.95, i
[27] Cc1ccnc(NC(c2ccsc2)c2c(NC(=O)c3ccccc3)sc3c2CCCC3)c1 (stereo unspecified)
  0.25, i
[28] CCc1cc(N2CCN(c3ccc(F)cc3)CC2)n2ncnc2n1
  -0.7, i
[29] Cc1sc(-c2noc(C3CCC3)n2)cc1NC(=O)C1CC(=O)N(c2cccc(Cl)c2)C1 (stereo unspecified)
  0.91, i
[30] CC(Sc1nnc(-c2cc3ccccc3[nH]2)o1)C(=O)Nc1ccc2c(c1)OCCO2 (stereo unspecified)
  0.26, i
[31] CN(CC1(C)CCOCC1)C(=O)NC1CCCCC1
  -0.22, i
[32] CC(=O)OCC(=O)[C@@]12OC(C)(C)O[C@@H]1C[C@H]1[C@@H]3C[C@H](F)C4=CC(=O)C=C[C@]4(C)[C@@]3(F)[C@@H](O)C[C@@]12C
  0.97, i
[33] COc1cccc(NC(=O)Cn2nc(-n3cccc3)c3c(C)cc(C)nc32)c1
  0.81, i
[34] CCC(C)NC(=O)CCc1cn(-c2ccccc2)nc1-c1ccc(C)cc1 (stereo unspecified)
  0.97, i
[35] CCCCc1ccc(NC(=O)CSC2=NN3CCCC(=O)N=C3S2)cc1
  0.54, i
[36] C#CC(N)CCC(=O)O (stereo unspecified)
  -0.11, i
[37] Cc1ccc(C(=O)N2CCN(Cc3cc(=O)n4nc(-c5ccc(C)cc5)sc4n3)CC2)cc1
  0.05, i
[38] O=C(NC(=NCc1ccncc1)Nc1ccc2c(c1)OCCO2)c1ccc2c(c1)OCO2
  0.46, i
[39] CCCCCn1cnc2scc(-c3ccc(C)cc3)c2c1=O
  -0.09, i
[40] O=C(NCc1ccncc1)c1ccc2c(c1)CCN2S(=O)(=O)c1ccc(Cl)cc1
  1.68, i
[41] CC(C)NC(=O)c1csc2c1CCCC2
  0.42, i
[42] O=S(=O)(NC1CCCCCCC1)c1ccc(-c2ccno2)s1
  0.28, i
[43] O=C(NC1CCCC1)C1CCN(c2cncnc2N2CCOCC2)CC1
  0.74, i
[44] Cc1ccc(S(=O)(=O)CC(=O)Nc2ccc(-c3nc4ccccc4o3)cc2)cc1
  1.77, i
[45] CC(=O)Nc1ccc(-c2noc(C3CCCN(C(=O)Cc4ccc(C)cc4)C3)n2)cc1 (stereo unspecified)
  0.6, i
[46] O=C(CCc1nc2sc3c(c2c(=O)[nH]1)CCCC3)NCCC1=CCCCC1
  1.25, i
[47] COc1ccc(-c2nnc3c4ccccc4c(C)nn23)cc1S(=O)(=O)N1CCC(C)CC1
  0.34, i
[48] CS(=O)(=O)Nc1cc(C(=O)NCCCN2CCCC2=O)ccc1N1CCNCC1
  -0.47, i
[49] COc1ccc(C2CC(=O)C3=C(C2)Nc2onc(C)c2C3c2ccc(O)cc2)cc1 (stereo unspecified)
  -0.57, i
[50] Cc1ccc(NS(=O)(=O)c2c(C)nc3sc4ccccc4n3c2=O)cc1Cl
  -0.57, i
[51] Cc1cc(=O)n2c(n1)NC(Nc1cccc(C)c1C)=NC2c1ccccc1 (stereo unspecified)
  0.35, i
[52] CCC(C)n1nnc2cc(S(=O)(=O)N3CCC(C(=O)Nc4ccc(OC)cc4)CC3)ccc21 (stereo unspecified)
  0.29, i
[53] COCc1nnc(NC(=O)COc2ccccc2-c2nc(C)no2)s1
  0.01, i
[54] COCCn1ccc2nc(C)c(C(=O)NCc3ccc4c(c3)OCO4)cc2c1=O
  0.56, i
[55] O=C(C1CCCN(S(=O)(=O)c2cc(-c3noc(C4CCC4)n3)cs2)C1)N1CCOCC1 (stereo unspecified)
  -1.04, i
[56] CCn1cnc2c(-c3ccccc3C)csc2c1=O
  0.01, i
[57] Cc1nc(CCNC(=O)[C@H]2CCCN2C(=O)c2ccccc2F)cs1
  0.19, i
[58] CCOCCCNc1ncnc2c1nnn2CC
  0.12, i
[59] CCSc1ncc2c(=O)n(CC(=O)Nc3cccc(C)c3C)cnc2n1
  2.12, i
[60] CCc1nnc(-c2cccs2)o1
  -0.76, i

Among those listed so far, 10 have a thiophene ring, fused or not.
Below each compound – Choline anaer gr early, Choline anaer gr
[18] Cc1cc2c(N(C)C3CCCCC3)ncnc2s1
  -0.68, i
[27] Cc1ccnc(NC(c2ccsc2)c2c(NC(=O)c3ccccc3)sc3c2CCCC3)c1 (stereo unspecified)
  0.25, i
[29] Cc1sc(-c2noc(C3CCC3)n2)cc1NC(=O)C1CC(=O)N(c2cccc(Cl)c2)C1 (stereo unspecified)
  0.91, i
[39] CCCCCn1cnc2scc(-c3ccc(C)cc3)c2c1=O
  -0.09, i
[41] CC(C)NC(=O)c1csc2c1CCCC2
  0.42, i
[42] O=S(=O)(NC1CCCCCCC1)c1ccc(-c2ccno2)s1
  0.28, i
[46] O=C(CCc1nc2sc3c(c2c(=O)[nH]1)CCCC3)NCCC1=CCCCC1
  1.25, i
[55] O=C(C1CCCN(S(=O)(=O)c2cc(-c3noc(C4CCC4)n3)cs2)C1)N1CCOCC1 (stereo unspecified)
  -1.04, i
[56] CCn1cnc2c(-c3ccccc3C)csc2c1=O
  0.01, i
[60] CCc1nnc(-c2cccs2)o1
  -0.76, i

(more compounds)
Below each compound – Choline anaer gr early, Choline anaer gr
[61] COc1cccc(C2(C(=O)N3CCN(C)CC3)CC2)c1
  0.16, i
[62] CC1CC(C)(C)N(C(=O)c2ccccc2F)c2ccccc21 (stereo unspecified)
  -1.18, i
[63] CCc1ccc(NC(=O)c2cc(-c3ccccn3)n[nH]2)cc1
  1.79, i
[64] Cc1sc2ncnc(NC3CC(C)(C)NC(C)(C)C3)c2c1C
  0.19, i
[65] CCn1c(SCc2ccc(F)cc2)nnc1-c1ccc2c(c1)OCCCO2
  -0.44, i
[66] c1ccc(-c2nnc(-c3cccnc3N3CCN(c4ncccn4)CC3)o2)cc1
  -0.32, i
[67] Brc1ccccc1-c1noc(CSc2ccc(-c3ccccc3)nn2)n1
  0.62, i
[68] CCCOc1ccccc1C1CC(=O)Nc2n[nH]c(C)c21 (stereo unspecified)
  -0.34, i
[69] CN(CC(=O)NC1CCCC1)S(=O)(=O)c1ccc2nc(-c3ccccc3)[nH]c2c1
  0, i
[70] CCc1nc(-c2cc(S(=O)(=O)NCC(=O)NC3CCCCC3)c(C)s2)no1
  -0.25, i
[71] COC(=O)c1sccc1NC(=O)N1CCN(c2nc3cc(F)ccc3n3cccc23)CC1
  -0.72, i
[72] Cc1onc(-c2cccc(Br)c2)c1C(=O)NCc1ccc2c(c1)OCO2
  0.86, i
[73] Cc1ccc(-n2c(=O)c3c(cnn3C)n(Cc3cccc(C)c3)c2=O)cc1
  0.61, i
[74] O=C(NCCC1=CCCCC1)C1=NS(=O)(=O)c2ccccc2N1
  -1.09, i
[75] CCC(=O)Nc1ccc(-c2cc(C(=O)NCc3ccccc3)c3ccccc3n2)cc1
  -0.32, i
[76] COC(=O)CNC(=O)N1CCN(Cc2nc3cc(C(=O)N(C)C)ccc3n2C)CC1
  -0.28, i
[77] O=C(Nc1ccc(Cl)cc1)c1nnc(SCC(=O)N2CCN(c3ccccn3)CC2)s1
  1.04, i
[78] CC1=C(CC(=O)O)c2cc(F)ccc2/C1=C/c1ccc(S(C)=O)cc1 (stereo unspecified)
  0.48, i
[79] C=CCN(C(=O)C(C)Sc1nc2ncccc2o1)c1ccccc1 (stereo unspecified)
  0.3, i
[80] CCCCCn1c(=O)[nH]c2cc(C(=O)NCCN(CC)CC)ccc2c1=O
  1.02, i
[81] COc1ccc(NC(=O)c2ccc(Oc3ccnc(-c4ccc(F)cc4)n3)cc2)c(OC)c1
  1.32, i
[82] COc1cccc(NC(=O)NCCc2nc3cccnc3n2Cc2ccccc2)c1
  0.48, i
[83] CC(=O)Nc1c2n(c3ccccc13)CC(C)(C(=O)NC1CCCCC1)N(C1CCC(C)CC1)C2=O (stereo unspecified)
  0.55, i
[84] O=C(Oc1ccccc1)c1nc2ccccc2nc1N1CCOCC1
  -0.18, i
[85] CCCNC(=O)c1ccc2c(=O)n(-c3cccc(F)c3)c(SCC(=O)c3c[nH]c4ccc(OC)cc34)nc2c1
  -0.13, i
[86] CNC(=O)c1nsc(C(=O)O)c1N
  -0.81, i
[87] COc1ccc(NC(=O)C2CCN(C(=O)C3Sc4ccccc4NC3=O)CC2)c(OC)c1 (stereo unspecified)
  -0.51, i
[88] CC(C)NC(=O)N1CCC2(C1)C(=O)N(C)c1ccccc12 (stereo unspecified)
  0.14, i
[89] COc1ccc(OC)c(S(=O)(=O)Nc2ccc(-c3ccc(N4CCCC4)nn3)cc2)c1
  0.08, i
[90] CCNc1cc(C)nc(Nc2ccc(NC(=O)CC3CCCC3)cc2)n1
  0.16, i
[91] O=C(CC1CCN(C(=O)c2cc3ccccc3[nH]2)CC1)NCc1ccc2c(c1)OCO2
  -0.06, i
[92] Cc1cccc(-c2cc(Nc3cccc(C(=O)NC4CCCCC4)c3)ncn2)c1
  0.22, i
[93] CN(Cc1ccccc1)C(=O)C1CCN(S(=O)(=O)c2ccc3nc4c(c(C(=O)O)c3c2)CCCC4)CC1
  1.65, i
[94] COc1ccc(-n2nnc3c(N4CCN(C(=O)CC5CCCC5)CC4)ncnc32)cc1
  0.31, i
[95] Cc1cc(N2CCCC2)nc2ccc(NC(=O)CCC3CCCC3)cc12
  -1.24, i
[96] O=c1ccc(N2CCCN(S(=O)(=O)c3cc(F)ccc3F)CC2)nn1-c1ccc(F)cc1
  0.05, i
[97] CCCS(=O)(=O)N1CCC(c2nnc(C(=O)Nc3ccc(OC)cc3)s2)CC1
  0.33, i
[98] CC(C)(C)c1ccc(C(=O)Oc2cccc(-n3cnnn3)c2)cc1
  2.32, i
[99] Cc1oc(C2CCN(C(=O)c3ccsc3)CC2)nc1C(=O)N1CCSCC1
  -1.28, i
[100] Cc1cccc(Cc2cnc(NC(=O)C3=Cc4cc(C)ccc4OC=C3)s2)c1
  0.15, i
[101] CCSc1nn(CC(=O)Nc2ccc(C(=O)OC)cc2)c(N)c1S(=O)(=O)c1ccc(C)cc1
  0.57, i
[102] COc1ccc(-c2cc(-c3cccc(OC)c3)nc3c(C(=O)Nc4ccc(F)cc4)cnn23)cc1
  0.69, i
[103] Cc1nc(C(=O)O)c(C(=O)O)[nH]1
  1.3, i
[104] Cc1ccc(Cn2nnc3cc(C(=O)NCCc4c[nH]c5ccccc45)ccc32)cc1
  0.61, i
[105] Cc1ccc(NC(=O)c2nnc(CCC(=O)NCc3ccccn3)s2)cc1
  -0.75, i
[106] C[C@H]1C[C@@H]2[C@H]([C@@H](O)C[C@@]3(C)[C@H]2CC[C@]3(O)C(=O)CO)[C@@]2(C)C=CC(=O)C=C12
  0.34&1.28, i
[107] CCc1ccc2occ(CC(=O)Nc3cccnc3)c2c1
  -0.59, i
[108] COc1ccc(NC(=O)Cn2nc3c4sccc4ncn3c2=O)cc1Cl
  -1.05, i
[109] Cc1cc(C)nc(NC(c2ccc(C(C)C)cc2)c2cc(C)sc2NC(=O)c2ccccc2)n1 (stereo unspecified)
  -0.37, i
[110] COc1ccc(NC(=O)CCc2c(C)nn(-c3ccc4nncn4n3)c2C)cc1OC
  -1.46, i
